Insulin prom inh: TRM-6 insulin promoter activity inhibition; TRM-6 cells (human fetal islet line), insulin promoter-eGFP reporter, imaging; reporter expression induced with tamoxifen; inhibition, % at 2 µM; 130,000 tested, 0.9% active; AID 1273;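 active = inhibition above the mean plus 3 SD, with well images judged a real hit on visual review, cut at about 60% in these data, passing the limit was not always enough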
PKD1 inh: blocks activity of human protein kinase D1; 200,000 tested, 0.056% active; AID 797; Q15139; PKD1 kinase fluorescence polarization assay; inhibition, %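 (about 10 µM by stock and volumes)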;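 active = inhibition of 50% or more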;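 also: controls were vehicle for no effect and a reference inhibitor for full effect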
Target sequence (Q15139 whole entry, looked up): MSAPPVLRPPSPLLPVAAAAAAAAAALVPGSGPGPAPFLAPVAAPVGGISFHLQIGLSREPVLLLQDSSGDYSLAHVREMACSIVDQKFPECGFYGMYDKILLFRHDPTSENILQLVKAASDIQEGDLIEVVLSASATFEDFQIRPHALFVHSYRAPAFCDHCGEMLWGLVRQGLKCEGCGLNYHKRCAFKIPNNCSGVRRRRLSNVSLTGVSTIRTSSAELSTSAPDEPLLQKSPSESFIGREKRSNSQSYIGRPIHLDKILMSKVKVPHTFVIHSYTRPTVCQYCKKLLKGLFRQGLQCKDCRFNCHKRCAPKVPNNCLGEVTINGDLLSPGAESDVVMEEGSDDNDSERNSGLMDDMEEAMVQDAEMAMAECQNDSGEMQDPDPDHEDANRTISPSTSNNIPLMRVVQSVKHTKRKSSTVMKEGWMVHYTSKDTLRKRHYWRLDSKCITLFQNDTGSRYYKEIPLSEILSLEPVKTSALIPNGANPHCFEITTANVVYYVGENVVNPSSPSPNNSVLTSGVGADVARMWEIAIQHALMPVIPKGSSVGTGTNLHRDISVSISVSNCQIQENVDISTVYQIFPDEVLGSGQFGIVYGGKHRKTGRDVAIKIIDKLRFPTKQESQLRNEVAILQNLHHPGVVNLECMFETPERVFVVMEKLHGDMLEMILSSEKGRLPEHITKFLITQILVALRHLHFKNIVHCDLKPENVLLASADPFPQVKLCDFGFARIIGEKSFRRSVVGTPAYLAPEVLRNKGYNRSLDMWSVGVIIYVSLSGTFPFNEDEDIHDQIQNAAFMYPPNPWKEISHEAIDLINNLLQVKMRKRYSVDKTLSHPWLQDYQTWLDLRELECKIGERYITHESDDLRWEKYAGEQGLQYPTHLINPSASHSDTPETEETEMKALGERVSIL
RGS16-Gao: modulates binding between human RGS16 and Galphao | O15492+P09471 | bead-based flow cytometry RGS16-Galphao binding, fluorescence; actives lie on both sides | binding response (% of control), % at 10 µM | 220,000 tested, 0.38% active | AID 1441;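 active = below 25% or above 175%, edge rows of some plates excepted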;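 also: Galphao activated by GDP with aluminum fluoride before binding; 100% = wells without compound and 0% = beads without RGS; some results beyond the cut were filed as inactive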
GALR2 ag: activates the human galanin receptor 2 | GALR2-expressing cells, agonist activation read-out | activation, %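 (tested at 5 µM)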 | 140,000 tested, 0.48% active | AID 803;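 active = above mean plus 3 SD of all compounds, about 5% in these data, not always enough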;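 also: 0% = vehicle buffer wells and 100% = reference agonist at full effect; tested in CHO reporter cells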
HSV replic up: increases HSV replication in cells. HSV replication augmentation in cells, fold increase. 220,000 tested, 0.005% active. maximum fold increase;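 active = peak rise of 1.5-fold or more in the series; tested in PC3 cells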;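 also: first round at 10 µM; read as green reporter fluorescence; hits show the peak of a series up to 25 µM; 1 = signal of infected wells without compound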
Insulin prom inh cell count: further read-out of Insulin prom inh, marked with its call; normalized cell count, %; measured here: cell count, toxicity; reference of the scale not given here;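 cells exposed to compound for 48 h; stained nuclei by imaging scaled within each plate; lower means fewer cells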
HSV replic up primary fold: recorded beside HSV replic up, whose call it bears; fold increase; compound at 10 µM; measured here: primary screen fold increase 10 uM; tested in PC3 cells;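 GFP signal in the first replicate; 1 = infected wells without compound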
* marks the source's active call; other numbers are inactive results; i = inactive; x = no result given.

SMILES	Insulin prom inh	Insulin prom inh cell count	PKD1 inh	RGS16-Gao	GALR2 ag	HSV replic up	HSV replic up primary fold
COc1cccc(C(=O)c2sc(NC(C)C)nc2N)c1	-4	121	6	98	-3.4	i	0.77
O=C(Nc1ccc(F)cc1)c1nn(-c2ccccc2)c(=O)cc1Cl	-30	47	-3	98	x	i	0.6
O=C(Nc1ccc2c(c1)OCO2)c1ccc[n+]([O-])c1	57	119	-5	92	-1.9	i	0.9
CC(C)=C1SC(N2CCOCC2)=NC1=O	7	87	-6	99	-0.8	i	0.91
CCOC(=O)C1CCN(CCC(=O)Nc2ccc(Cl)cc2)CC1	43	115	-11	104	-3.4	i	1.1
Nc1c(C(=O)NCc2ccco2)sc2nc3c(cc12)C(=O)CCC3	-6	155	2	63	-0.6	i	0.89
COCCN1C(=O)N(c2cccc(C)c2)C(=O)C1CC(=O)Nc1ccc(F)cc1 (centres undefined)	50	97	-12	101	-2.1	i	0.82
CCOC(=O)c1c(NC(=O)Nc2cccc(Cl)c2)sc(C)c1C	13	143	-6	98	-3.4	i	0.88
Cc1ccc(N(C(=O)C2CCCO2)C2C=CS(=O)(=O)C2)cc1Cl (centres undefined)	16	72	-1	100	-0.4	i	1
CCn1c(SCC(=O)Nc2ccc3c(c2)c2ccccc2n3CC)nnc1-c1cnccn1	-5	108	-1	100	0.1	i	0.83
CCCCn1c(CN2CCN(c3ccccc3)CC2)nc2c1c(=O)n(C)c(=O)n2C	x	x	-12	102	0.1	i	0.96
Cc1ccc(S(=O)(=O)Nc2ccnc(-c3cccnc3)n2)cc1	x	x	-8	102	x	i	1
CCCN1CC23C=CC(O2)C(C(=O)O)C3C1=O (centres undefined)	x	x	-8	104	-0.1	i	0.85
COc1ccc(-c2cc(C(=O)NCCCn3ccnc3)no2)cc1	x	x	-6	104	x	i	1
Cn1c(NC(=O)Cc2ccc(F)cc2)cc(=O)n(C)c1=O	x	x	-8	98	-1.9	i	0.86
O=C(O)CC1NCCc2ccccc21 (centres undefined)	x	x	x	103	x	i	1.1
COCCn1c(SCC(=O)N2CCCc3ccccc32)nnc1-c1ccco1	-76	46	0	108	-2.5	i	1.3
CCS(=O)(=O)Nc1cc(C(=O)O)ccc1C	21	87	3	98	x	i	1.1
CCCc1cc(=O)[nH]c(SCc2ccc(C#N)cc2)n1	52	115	-4	144	-0.4	i	0.8
Cc1nc(N2CCC(C)CC2)c2c(C)c(C(=O)Nc3ccc(C)c(F)c3)sc2n1	x	x	-8	97	x	i	0.84
CCOc1ccc(Cc2onc3c2C(=O)CC(C)(C)C3)cc1OCC	-47	107	-4	107	x	i	1
CO[C@H]1C=CO[C@@]2(C)Oc3c(C)c(O)c4c(O)c(c5c(c4c3C2=O)NC2(CCN(CC(C)C)CC2)N=5)=NC(=O)C(C)=CC=C[C@H](C)[C@H](O)[C@@H](C)[C@@H](O)[C@@H](C)[C@H](OC(C)=O)[C@@H]1C	x	x	x	102	x	i	0.77
CCOC(=O)c1c(C)[nH]c(C2=NNC(=Nc3ccccc3OC)SC2)c1C	-25	95	-2	98	-1.5	i	1.1
COC(=O)C1=C(Nc2ccccc2NC(=O)CCCC(=O)O)CSC1	x	x	x	103	x	i	1
CCOC(=O)c1c(C)nc2sc3c(=O)[nH]cnc3c2c1-c1ccc(OC)cc1	-108	43	10	80	-0.5	i	1.1
CC(C)(C)NC(=O)C(c1ccc(O)cc1)N(C(=O)CCC(=O)Nc1nccs1)c1ccccc1F (centres undefined)	-27	106	4	92	x	i	0.98
CCc1c(C)nc(SC)n(CC#N)c1=O	48	40	9	103	-1.0	i	0.94
O=C(Cc1coc2cc3c(cc12)CCC3)OCc1cc(=O)n2c(n1)sc1ccccc12	x	x	-1	95	0.3	i	1
COc1ccc(-c2cc(-n3c(C(F)(F)F)nc4ccccc43)n(CCC#N)n2)cc1	-29	101	23	63	-2.4	i	0.87
O=S(=O)(c1ccccc1)c1cnc(-c2cccnc2)nc1-c1ccc(Cl)cc1Cl	7	112	-8	92	-2.0	i	0.82
O=C(Nc1ccc(F)cc1F)c1ccccc1-c1ccccc1	x	x	-9	107	0.5	i	1.2
O=C(CCn1c(=O)sc2ccccc21)NCc1cccs1	-93	195	-8	102	-3.1	i	0.9
COC(=O)c1sc(-c2ccc(C(C)(C)C)cc2)cc1NC(=O)COCC(=O)O	x	x	x	100	x	i	1.2
CC(C)CNC(=S)NC1CC2CCCC(C1)N2C1CCCCC1 (centres undefined)	-27	48	1	103	x	i	0.92
O=C(O)c1cc(-c2ccccc2)n(-c2ccccc2)n1	-51	129	-7	93	-2.1	i	1.1
Clc1ccccc1N1CCN(c2ncnc3nc[nH]c23)CC1	0	100	0	102	-0.5	x	x
Cc1ccc(NC(=O)OCC(F)(F)C(F)F)cc1NC(=O)OCC(F)(F)C(F)F	21	120	1	103	-1.0	i	0.82
CCOc1ccccc1NC(=O)C(OC(=O)c1ccccc1NS(=O)(=O)c1cccs1)c1ccccc1 (centres undefined)	-40	111	-7	102	-0.1	i	0.93
O=C(c1cccs1)C1CCCN(Cc2nc(Cc3ccccc3F)no2)C1 (centres undefined)	x	x	1	100	x	i	0.94
CCN(CC)C(=O)CNc1ccc(C(F)(F)F)cc1[N+](=O)[O-]	-36	96	3	106	-0.3	i	0.93
O=S(=O)(c1ccccc1)c1cnn2c(C(F)(F)F)cc(-c3ccccc3)nc12	-29	107	-4	106	-2.1	i	1
CCOC(=O)N1CCC(N2C(=O)c3ccccc3C2Nc2ccc(S(=O)(=O)N(CC)CC)cc2)CC1 (centres undefined)	x	x	-3	101	x	i	0.81
CC1(C)CN(c2cccc(-c3ccnc4ncnn34)c2)C1=O	9	97	-1	101	x	i	0.91
Cc1c(C#N)c2ccccc2n1CC(=O)N1CCc2ccccc2C1	0	120	-1	x	-2.3	i	0.74
O=C(CCN1C(=O)/C(=C\c2cccs2)SC1=S)Nc1nccs1	0	113	-1	104	-1.4	i	0.95

Grouped by structure: those above with an NH in an aromatic ring.
SMILES	Insulin prom inh	Insulin prom inh cell count	PKD1 inh	RGS16-Gao	GALR2 ag	HSV replic up	HSV replic up primary fold
CCCc1cc(=O)[nH]c(SCc2ccc(C#N)cc2)n1	52	115	-4	144	-0.4	i	0.8
CCOC(=O)c1c(C)[nH]c(C2=NNC(=Nc3ccccc3OC)SC2)c1C	-25	95	-2	98	-1.5	i	1.1
CCOC(=O)c1c(C)nc2sc3c(=O)[nH]cnc3c2c1-c1ccc(OC)cc1	-108	43	10	80	-0.5	i	1.1
Clc1ccccc1N1CCN(c2ncnc3nc[nH]c23)CC1	0	100	0	102	-0.5	x	x

(listing goes on)
SMILES	Insulin prom inh	Insulin prom inh cell count	PKD1 inh	RGS16-Gao	GALR2 ag	HSV replic up	HSV replic up primary fold
O=c1[nH]c(SCc2cccc(F)c2)nc2c1CCCC2	-21	112	5	109	-2.3	i	1
CCCCn1c(SCC(=O)N2CCOCC2)nnc1-c1cccs1	-14	125	11	101	-1.1	i	0.88
Cc1ccsc1C(=O)OCC(=O)NCCC1=CCCCC1	x	x	-1	98	-0.1	i	0.93
COCCCn1c(=O)/c(=C\c2ccccc2OC(F)F)s/c1=C(/C#N)C(=O)N1CCOCC1	x	x	-4	99	x	i	0.93
Cc1ccc2cc(C#N)c(NCCNC(=O)C3CCC3)nc2c1C	x	x	6	100	0.8	i	1.1
Nc1ccc(C(=O)OCc2nc3c(ccc4ccccc43)[nH]2)cc1	39	128	9	102	-1.5	i	0.9
COc1ccc2c(c1)C=C(CN1CCC(CO)(CCc3ccccc3)CC1)CO2	x	x	-8	107	x	i	1
CCC(C)NC(=O)CSc1ccc(Cl)cc1 (centres undefined)	0	112	-1	112	-1.7	i	0.97
Cc1ccc(Cl)cc1N(CC(=O)Nc1cccc(N(C)S(C)(=O)=O)c1)S(C)(=O)=O	-124	49	-4	99	x	i	0.99
Cc1c(Br)c(O)c(Br)c2sc(=O)oc12	x	x	x	98	x	i	0.88
COc1ccc2c(c1)NC(c1cc(Cl)cc(Cl)c1O)c1cccn1-2 (centres undefined)	x	x	-6	97	x	i	1.1
CSc1ccccc1C(=O)N1CCN(c2ncccn2)CC1	36	59	-7	52	x	i	1
Cc1c(C(=O)C(=O)NCc2ccco2)c2ccccc2n1C	x	x	3	97	x	i	0.85
O=C(COc1nc2ccccc2nc1N1CCOCC1)Nc1cccc(S(=O)(=O)N2CCCCC2)c1	x	x	-10	108	1.3	i	1
COc1ccc(-c2nn(-c3ccccc3)cc2/C=C\C(=O)Nc2ccc(C(=O)O)cc2)cc1	x	x	0	99	x	i	1.1

Seven entries picked at random from the list so far:
SMILES	Insulin prom inh	Insulin prom inh cell count	PKD1 inh	RGS16-Gao	GALR2 ag	HSV replic up	HSV replic up primary fold
COc1ccc(-c2nn(-c3ccccc3)cc2/C=C\C(=O)Nc2ccc(C(=O)O)cc2)cc1	x	x	0	99	x	i	1.1
COc1ccc2c(c1)NC(c1cc(Cl)cc(Cl)c1O)c1cccn1-2 (centres undefined)	x	x	-6	97	x	i	1.1
O=c1[nH]c(SCc2cccc(F)c2)nc2c1CCCC2	-21	112	5	109	-2.3	i	1
Cc1ccc2cc(C#N)c(NCCNC(=O)C3CCC3)nc2c1C	x	x	6	100	0.8	i	1.1
COCCCn1c(=O)/c(=C\c2ccccc2OC(F)F)s/c1=C(/C#N)C(=O)N1CCOCC1	x	x	-4	99	x	i	0.93
Cc1ccsc1C(=O)OCC(=O)NCCC1=CCCCC1	x	x	-1	98	-0.1	i	0.93
Cc1c(C(=O)C(=O)NCc2ccco2)c2ccccc2n1C	x	x	3	97	x	i	0.85

The listing continues:
SMILES	Insulin prom inh	Insulin prom inh cell count	PKD1 inh	RGS16-Gao	GALR2 ag	HSV replic up	HSV replic up primary fold
CC(C)(CN1CCCCC1)NS(=O)(=O)c1ccc(Cl)cc1	6	150	-1	102	-6.0	i	1
Cc1noc(C)c1CC(=O)N1CCCC(C(=O)c2ccc(C(C)(C)C)cc2)C1 (centres undefined)	x	x	-8	99	x	i	1
FC(F)(F)c1ccc(/C=N/NC(=S)NC2CCCCC2)cc1	8	76	-1	107	x	i	1
Nn1c(N2CCCCC2)nc2ccccc21	61	193	5	180	-1.7	i	0.94
CCCc1nnc(SCC(=O)N2C(C)CCCC2C)n1CC1CCCO1 (centres undefined)	-50	74	2	103	0.6	i	1
CN1CCC(NC(=O)c2ccncc2)CC1	x	x	-1	100	x	i	0.89
COc1ccc(CCN(Cc2ccc(C(C)C)cc2)S(=O)(=O)c2ccc(S(=O)(=O)N(C)C)cc2)cc1OC	-3	83	3	100	0.2	i	0.93
O=C(CN(C(=O)CNS(=O)(=O)c1ccccc1)c1ccc2c(c1)OCCO2)NC1CCCCC1	-42	96	13	101	-0.3	i	1
Cc1nn(-c2ccccc2)c(Oc2ccccc2)c1C=O	-7	121	3	101	-0.4	i	0.98
O=C(Nc1ccccc1)C(=O)Nc1cccnc1	x	x	x	98	x	i	0.89

4 compounds already listed, ordered by molecular weight, falling:
SMILES	Insulin prom inh	Insulin prom inh cell count	PKD1 inh	RGS16-Gao	GALR2 ag	HSV replic up	HSV replic up primary fold
CCCc1nnc(SCC(=O)N2C(C)CCCC2C)n1CC1CCCO1 (centres undefined)	-50	74	2	103	0.6	i	1
Cc1nn(-c2ccccc2)c(Oc2ccccc2)c1C=O	-7	121	3	101	-0.4	i	0.98
CN1CCC(NC(=O)c2ccncc2)CC1	x	x	-1	100	x	i	0.89
Nn1c(N2CCCCC2)nc2ccccc21	61	193	5	180	-1.7	i	0.94
